Screening results deposited in PubChem BioAssay by several laboratories.
WNV NS2B-NS3 inh = blocks West Nile virus NS2B-NS3 protease activity. z-score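 (tested at a level between 10 and 100 µM)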. AID 577. WNV NS2B-NS3 protease, fluorogenic substrate Ex360/Em465; hits give low values. 0.18% of 65,000 active;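 active means z-score at -3 or under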;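 further: score is relative to mean and spread of the compound wells of a plate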
Target sequence (P06935 1371-1501 limits assumed): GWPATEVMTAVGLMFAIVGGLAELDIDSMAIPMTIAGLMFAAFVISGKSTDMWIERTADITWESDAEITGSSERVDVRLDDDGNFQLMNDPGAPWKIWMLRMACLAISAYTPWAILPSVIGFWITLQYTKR
Target sequence (P06935 1502-1679 limits assumed): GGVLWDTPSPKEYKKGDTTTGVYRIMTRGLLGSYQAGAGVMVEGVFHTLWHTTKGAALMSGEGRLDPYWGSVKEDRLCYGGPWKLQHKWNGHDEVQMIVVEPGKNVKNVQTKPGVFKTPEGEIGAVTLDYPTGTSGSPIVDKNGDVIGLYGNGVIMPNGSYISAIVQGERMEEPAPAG
MT1-MMP reporter = MT1-MMP gene expression reporter suppression – cell-based, luciferase reporter, luminescence (AID 618) | MT1-MMP promoter luciferase reporter cells, luminescence | calls from a first round at 10 µM; hits with a dose series show EC50 in µM | 0.62% of 87,000 active;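 active means over half of the reporter light lost at 10 µM or EC50 under 50 µM; inactive means the rest and hits that failed the dose series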;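 further: actives suppress MT1-MMP promoter-driven transcription so potencies describe inhibitors; HT1080 fibrosarcoma cells; overnight exposure; toxic or luciferase-blocking compounds were not removed from the actives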
Hsc70 = small molecules displacing fluorescent ligand from Hsc70 – biochemical, fluorescence polarization, primary screen (AID 568); Hsc70 fluorescence polarization, probe displacement; higher % means a stronger effect; strong numbers were not always called active; displacement, % at 20 µM, or IC50 in µM where a hit was titrated; 83,000 tested, under 10 active;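 active means displacement above 50% without optical interference and an IC50 on retest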;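 further: ATPase domain with a fluorescein-tagged ATP probe; 0% = vehicle and 100% = excess ADP; read after one hour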
An asterisk follows results filed as active; i = inactive; x = not tested or not shown.

SMILES | WNV NS2B-NS3 inh | MT1-MMP reporter | Hsc70
CCCS(=O)(=O)NCCc1cc2ccc(OC)cc2[nH]c1=O | -0.42 | i | -0.1%
CC(=O)c1sc(NC(=O)CN2C(=O)CCC2=O)nc1C | -1.2 | i | -5.7%
Cn1c(SCC(=O)N2CCN(c3ccccc3)CC2)nnc1-c1ccccc1 | x | i | 2.0%
CS(=O)(=O)N(CC(=O)N1CCN(c2ccc(F)cc2)CC1)c1ccc(F)c(Cl)c1 | x | i | -2.1%
Cc1cc2c(=O)n(NC(N)=O)c(C)nc2s1 | -0.8 | i | -0.1%
O=C(Cn1cc2c(n1)CCCCC2)NCCCN1CCOCC1 | 0.02 | i | 2.0%
O=C(Nc1cnn(C23CC4CC(CC(C4)C2)C3)c1)c1cnn2c(C(F)(F)F)cc(-c3ccco3)nc12 | -0.05 | i | 0.6%
CCCCOC(=O)CSC1=C(C#N)C(c2ccccc2OC)C(C#N)C(=O)N1 (stereo unspecified) | -0.71 | i | 0.3%
COc1ccc(NC(=O)C23CCC(C)(C(=O)O2)C3(C)C)cc1 (stereo unspecified) | 0.5 | i | 4.1%
Cc1nnc(SCC(=O)N2CCN(S(=O)(=O)c3ccccc3)CC2)n1Cc1ccccc1 | -0.12 | i | 8.0%
O=C(C(c1ccccc1)c1ccccc1)N1CCN(Cc2ccncc2)CC1 | 0.78 | i | 3.2%
Cc1cc(C)n(-c2nnc3n2N=C(c2c[nH]c4ccccc24)CS3)n1 | -0.04 | i | -4.9%
Cn1c(NCc2ccco2)nc2c1c(=O)n(Cc1ccc(Br)cc1)c(=O)n2C | -0.46 | i | 4.6%
CCCCc1nc2ccccc2c(=O)n1NC(=O)c1c(O)c2c(n(CC(C)C)c1=O)CCCC2 | -2.1 | i | -16%
CCOC(=O)c1cc(C)sc1NC(=O)c1ccc(Cl)s1 | x | i | -2.3%

Three entries from above in another layout.
molecule: Cn1c(SCC(=O)N2CCN(c3ccccc3)CC2)nnc1-c1ccccc1
  WNV NS2B-NS3 inh: x
  MT1-MMP reporter: i
  Hsc70: 2.0%

molecule: Cc1cc2c(=O)n(NC(N)=O)c(C)nc2s1
  WNV NS2B-NS3 inh: -0.8
  MT1-MMP reporter: i
  Hsc70: -0.1%

molecule: CS(=O)(=O)N(CC(=O)N1CCN(c2ccc(F)cc2)CC1)c1ccc(F)c(Cl)c1
  WNV NS2B-NS3 inh: x
  MT1-MMP reporter: i
  Hsc70: -2.1%

(list continues)
SMILES | WNV NS2B-NS3 inh | MT1-MMP reporter | Hsc70
COCCNC(=O)CSc1nc(-c2ccccc2)cs1 | x | i | 2.1%
CCOC(=O)C1=C(C)Nc2nc(=S)[nH]n2C1c1ccc(Cl)cc1 (stereo unspecified) | x | i | -1.2%
Cc1ccc2nc(SCC(=O)c3cc(C)n(C)c3C)[nH]c2c1 | x | i | -2.7%
CCCCn1cc(SCC(=O)O)c2ccccc21 | 0.86 | i | 1.7%
CN1C(=O)C(O)(C2COC(C)(C)CC2=O)c2ccccc21 (stereo unspecified) | 1.3 | i | -0.4%
CCCCn1c(SCC(=O)Nc2ccc3c(c2)OCO3)nc2c1c(=O)n(C)c(=O)n2C | -0.5 | i | 9.7%
CCOc1ccc(Cc2nc(C)c(CC(=O)N3CCCCC3)c(=O)[nH]2)cc1 | -1.3 | i | 1.6%
Cc1[nH]nc2c1C1(CCN(C(=O)c3ccccc3)CC1)C(C#N)=C(N)O2 | 0.38 | i | 3.5%
CCOC(=O)/C(C(N)=NCCCO)=C(/O)c1ccccc1 | x | i | -4.1%
CCOC(=O)C1(C(F)(F)F)N=C(N(C)C)OC(N(C)C)=N1 | -0.45 | i | -11%
COc1cc(C(=O)OCC(=O)NC2CCCC2)cc(NC(=O)c2ccco2)c1OC | 0.83 | i | -1.4%
Cc1cnc(NC(=O)CSc2nnc(Cc3ccccc3)n2C)s1 | 0.08 | i | 0.4%
Cc1ccc(-c2noc(-c3cccs3)n2)cc1 | -0.68 | i | 8.5%
COC(=O)C1CCN(Cc2cc(=O)oc3cc(OC)ccc23)CC1 | 0.12 | i | -4.6%
Cc1cccc(NS(=O)(=O)Cc2ccccc2)n1 | x | i | -4.5%
CCCSc1nc2c(cnn2-c2ccc(C)cc2)c(=O)[nH]1 | 0.68 | i | -3.1%
CCOC(=O)c1[nH]c2cc3c(cc2c1CCCN1C(=O)c2ccccc2C1=O)OCCO3 | 0.46 | i | -7.5%
COc1cc2cc(C)c3nnc(SCC(N)=O)n3c2cc1OC | -0.17 | i | 3.1%
O=C(CC1SC2=NCCN2C1=O)Nc1ccc(Cl)cc1 (stereo unspecified) | -0.71 | i | -0.7%
Clc1ccc(CCNc2ncnc3nc[nH]c23)cc1 | 0.57 | i | 1.6%
Cc1c(NC(=O)CSc2nc3ccccc3n2C)c(=O)n(-c2ccccc2)n1C | 0.0075 | i | 4.3%
CC1=CC(C)(C)N2C(=O)C3(C(C#N)=C(N)OC4=C3C(=O)CC(C)(C)C4)c3c(C)c(C)cc1c32 (stereo unspecified) | x | i | 1.6%
CC(C)OC(=O)c1ccc(N2C(=O)C3CC=CCC3C2=O)cc1 (stereo unspecified) | -0.98 | i | 4.9%
CC1CC2(NC(=O)NC2=O)C(C)CN1C (stereo unspecified) | x | i | -0.7%
CCc1cccc(NC(=O)CN(c2ccc(OC)cc2)S(=O)(=O)c2c(C)n[nH]c2C)c1 | -0.81 | i | 0.5%
Cc1cc2ncn(C3CC(=O)N(Cc4ccccc4)C3=O)c2cc1C (stereo unspecified) | -0.55 | i | -1.1%
O=C(Nc1ccc(N2CCOCC2)c(Cl)c1)c1cccc(F)c1 | -1.3 | i | -3.2%
COc1ccc(Nc2ncnc3c2cnn3-c2ccccc2)cc1OC | -1.1 | i | 10%
CCN1CCN(Cc2c(O)c(Cl)cc3c(C)cc(=O)oc23)CC1 | 5.6 | i | 1.1%
COc1ccc(CNC(=O)C2CCCN(S(=O)(=O)c3cc(C)ccc3OC)C2)cc1 (stereo unspecified) | 1.2 | i | -0.5%
CC(=O)Cc1nsc(NC(=O)c2ccc(Br)o2)n1 | 0.93 | i | 0.3%
CN(C(=O)COc1nnc(-c2cccs2)c(-c2cccs2)n1)c1ccccc1 | -0.98 | i | -6.9%
CCC(=O)Nc1cc(NC(=O)CSc2ncc(-c3ccc(F)cc3)n2Cc2ccco2)ccc1C | 0.95 | i | -10%
OCCNC(=S)NC1CCCCC1 | x | i | 3.4%
CCOC(=O)c1ccc2[nH]c(C)cc(=O)c2c1 | 0.26 | i | -2.9%
CCC(C)NCCCOc1cc(Cl)ccc1Cl (stereo unspecified) | x | i | 3.1%
CCN1C(=O)c2ccccc2S(=O)(=O)c2ccc(C(=O)NCc3cccnc3)cc21 | 0.84 | i | 8.8%
CCOC(=O)C1CCN(C(=O)c2ccc(OCC)c(OCC)c2)CC1 | 1.2 | i | -7.8%
O=C(c1ccco1)N1CCN(C(=O)c2snc3ccc(Cl)cc23)CC1 | -1.4 | i | -3.2%
Cc1ccnc(NC2c3ccccc3C(=O)N2Cc2ccccc2Cl)c1 (stereo unspecified) | -0.27 | i | 0.0%
C=CCn1c(C)cc(C(=O)COC(=O)COc2ccccc2C#N)c1C | 0.97 | i | -1.1%
N#Cc1nc(-c2ccc(OCc3ccccc3Cl)cc2)oc1NCCCn1ccnc1 | -0.78 | i | 1.2%
COc1ccccc1NC(=O)c1ccccc1SC | -0.35 | i | -3.9%
Cc1ccc(-c2nnc(CSc3nnc(C)s3)o2)cc1 | 1.8 | i | -0.5%
COc1ccc(C(=O)CC(c2ccccc2)C2CCCCC2=O)cc1 (stereo unspecified) | x | i | -3.2%

Part of the list above in order of count of non-hydrogen atoms, lowest first:
SMILES | WNV NS2B-NS3 inh | MT1-MMP reporter | Hsc70
OCCNC(=S)NC1CCCCC1 | x | i | 3.4%
COc1ccccc1NC(=O)c1ccccc1SC | -0.35 | i | -3.9%
Cc1ccc(-c2nnc(CSc3nnc(C)s3)o2)cc1 | 1.8 | i | -0.5%
C=CCn1c(C)cc(C(=O)COC(=O)COc2ccccc2C#N)c1C | 0.97 | i | -1.1%
CCN1C(=O)c2ccccc2S(=O)(=O)c2ccc(C(=O)NCc3cccnc3)cc21 | 0.84 | i | 8.8%
N#Cc1nc(-c2ccc(OCc3ccccc3Cl)cc2)oc1NCCCn1ccnc1 | -0.78 | i | 1.2%

Next records follow.
SMILES | WNV NS2B-NS3 inh | MT1-MMP reporter | Hsc70
Cc1cc(CC(=O)O)c(C)cc1CC(=O)O | -0.5 | i | 3.3%
CNC(=O)c1ccc(-c2sc3nc(N4CCOCC4)c4c(c3c2N)CCCC4)o1 | 0.38 | i | -1.4%
CCOC(=O)N1CCN(C(=O)COc2ccc(S(=O)(=O)Nc3ccc(OCC)cc3)cc2)CC1 | -0.35 | i | 1.5%
O=C(CSc1nnc(Cn2nnc(-c3ccccc3)n2)n1-c1ccccc1)Nc1ccccc1 | -0.14 | i | -3.5%
O=C(COc1ccccc1)Nc1ccccc1N1CCCCC1 | -0.37 | i | 8.5%
COC(=O)C(C)n1cnc2c(nnn2-c2ccc(OC)cc2)c1=O (stereo unspecified) | 0.23 | i | 2.3%
COc1ccc(/C=C2\OC(=S)N(C)C2=O)cc1 | x | i | 3.6%
CCN(CC)S(=O)(=O)c1ccc(NC(=O)C(C)N(c2ccccc2)S(C)(=O)=O)cc1 (stereo unspecified) | x | i | 5.5%
Cc1nnc(NC(=O)CSC2CCCCC2)s1 | -0.23 | i | 7.5%
C=CCCCOc1ccc(C(=O)O)cc1 | 0.53 | i | 2.4%
Cc1cccc(-c2noc(C3CCCCC3)n2)c1 | 0.79 | i | -1.3%
COC(=O)C1=C(C)N(CCc2ccccc2)C(=O)C1(NS(=O)(=O)c1ccc(NC(C)=O)cc1)C(F)(F)F (stereo unspecified) | x | i | -2.6%
CCOC(=O)c1[nH]c(C)c(C(=O)OCc2c(C)noc2C)c1C | 0.13 | i | 0.9%
CNc1nc(-c2ccccn2)nnc1-c1ccccc1 | x | i | -3.4%
O=C1CCCC2=C1C1(CCCCC1)N=C(Nc1nc3ccccc3o1)N2 | 0.51 | i | -5.4%
Cn1c(=O)n(CCN2CCOCC2)c(=O)c2c1nc1n2CCN1c1ccc(Oc2ccccc2)cc1 | 0.71 | i | 0.8%
Cc1cc(NC(=O)c2ccc(N(C)S(=O)(=O)c3ccccc3)cc2)no1 | -0.52 | i | 0.1%
COc1ccccc1N1CCN(C(=O)C(Cc2ccccc2)NC(=O)C2CCCCC2)CC1 (stereo unspecified) | 0.48 | i | -1.6%
CC(C)CC(c1nnnn1Cc1ccco1)N1CCN(c2cccc(Cl)c2)CC1 (stereo unspecified) | 0.54 | i | -1.7%
COc1cc(S(=O)(=O)N(Cc2ccccn2)Cc2ccco2)ccc1-n1cnnn1 | x | i | -1.3%
Cc1cc(C)c2c(c1)/C(=C/C(=O)c1ccc(Br)s1)C(=O)N2 | x | i | -6.6%
COC(=O)[C@H](CCSC)NC(=O)Nc1ccc(C)cc1C | -0.94 | i | -0.2%
Cc1cc(C)cc(NC(=O)CSc2nnc(-c3ccccc3C)o2)c1 | -0.65 | i | -6.0%
CC(C)=C1C2C=CC1C(C(=O)Nc1cc(C)ccc1C)C2C(=O)O (stereo unspecified) | -1.2 | i | -7.4%
CCOC(=O)N1CCC(NC(=O)CCCN2C(=O)CSc3ncccc32)CC1 | 1.1 | i | -4.0%
O=C(CSc1nnc(CNC(=O)c2cccs2)o1)NC1CCCC1 | -0.04 | i | -4.1%
CC(=O)c1c(C)nc(-c2ccccc2)n1O | x | i | -4.4%
Cc1ccc(NC(=O)CSc2nnc(-c3ccccc3Br)o2)cc1C | -1.2 | i | -11%
CCOC(=O)CCc1c(C)nc2ncnn2c1C | 0.52 | i | -9.7%
Cc1nc(N)sc1-c1csc(N(C)c2ccc(O)cc2)n1 | -0.71 | i | -3.0%
Cc1cc(C)nc(NS(=O)(=O)c2ccc(NC(=O)CCC3COc4ccccc4O3)cc2)n1 (stereo unspecified) | -0.05 | i | 7.8%
CCOC(=O)c1ccc(N2C(=O)CC(SCC(N)C(=O)OCC)C2=O)cc1 (stereo unspecified) | -0.04 | i | 2.3%
CCOCCOC(=O)COc1ccc(N2C(=O)c3ccccc3C2=O)cc1 | 0.56 | i | 5.6%
Cc1sc2ncnc(N3CCCCC3C)c2c1C (stereo unspecified) | 0.55 | i | -4.2%
O=S(=O)(NCc1csc(-c2cccnc2)n1)c1cccs1 | 0.2 | i | -3.7%
N=c1n(CCN2CCOCC2)c2ccccc2n1CC(=O)c1ccc(Cl)c(Cl)c1 | 0.22 | i | 2.7%
Cc1csc2c(C#N)c(=O)c3c(n12)CCC3 | 1.5 | i | -0.9%
COc1ccc(-c2nnc(SC(C)C(=O)Nc3ccc4c(c3)OCCO4)o2)cc1 (stereo unspecified) | 1.2 | i | -8.2%
Cc1cc(C)c2c(N)c(S(=O)(=O)c3ccccc3)sc2n1 | -0.7 | i | -17%
c1ccc(C2(CNc3ccccn3)CCCC2)cc1 | x | i | 3.5%
CCOc1ccccc1N1C(=O)c2ccc(C(=O)O)cc2C1=O | -0.88 | i | -2.6%
CCCCCn1c(CN2CCN(C(=O)OCC)CC2)nc2c1c(=O)[nH]c(=O)n2C | -0.0052 | i | -2.1%
COc1cccc(S(=O)(=O)Nc2cccc(C(=O)N3CCOCC3)c2)c1 | x | i | -3.2%
COc1ccc(Cn2nnc3c(=O)[nH]c(C4CCN(C(=O)c5ccccc5Cl)CC4)nc32)cc1 | -0.52 | i | -8.7%

Some of the compounds tested; count on the stated rates, not on these rows.
